High-throughput results as filed in PubChem BioAssay.
T cruzi inh = blocks replication of Trypanosoma cruzi; hit rate 1.4% among 300,000; T. cruzi beta-gal in NIH3T3, luminescence, 90 h; inhibition, % (concentration not given with the values);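 active means mean inhibition across valid replicates above about 55%, limit read from the data; inconclusive means mean below that limit but half or more replicates reach it; inactive means mean below it, under half of replicates reach it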;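 further: signal also drops with host cell toxicity which is not excluded here; 0% = plate median of DMSO wells and 100% = zero luminescence signal; higher percent means less beta-gal luminescence so fewer parasites; stock transfer was 50 nL into about 50 µL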
A1 inh = inhibitors of the anti-apoptotic protein A1, read as caspase activation; MEF A1-2A-BIM cells, Caspase-Glo 3/7 luminescence, 3 h; percent of clofoctol response, vehicle zero; caspase activation, % (test concentration not listed); hit rate 0.066% among 330,000;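 active means over half of replicate activation scores above 10%, or exactly half above 10 with the replicate mean above 10; inconclusive means replicate mean below 10 yet half the replicates above 10; inactive means over half of replicates below 10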;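 further: wells of about 30 µL received 50 nL stock; many hits fall short of the cut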
LANA-H2A inh = blocks KSHV LANA binding to histone H2A/H2B | inhibition, % (test concentration not listed) | Q9QR71 | AID 2629 | cell-free LANA-H2A/H2B peptide, fluorescence polarization | hit rate 0.6% among 320,000; in the data active means inhibition mostly above about 10%, no sharp cut-off; inactive means mostly below about 6.7%;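 further: stock transfer was 7.5 nL into about 10 µL; 0% = median of vehicle wells and 100% = median of positive control wells; one replicate is shown; the record names a cut of 25% in any replicate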
Beta2AR agonist = human beta-2 adrenergic receptor agonism by FAP; P07550; Am2.2-beta2AR cells, FAP receptor internalization, flow cytometry; reference of the scale not given here; response, % (concentration not given with the values); hit rate 0.43% among 340,000;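 active means response above a set limit, near 3 SD of response in nonfluorescent compounds, cut at about 42% in these data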;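 further: stock transfer was 100 nL into about 11 µL; a reference agonist was the positive control; negative values mostly stem from fluorescent compounds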
Target sequence (P07550 whole entry, looked up): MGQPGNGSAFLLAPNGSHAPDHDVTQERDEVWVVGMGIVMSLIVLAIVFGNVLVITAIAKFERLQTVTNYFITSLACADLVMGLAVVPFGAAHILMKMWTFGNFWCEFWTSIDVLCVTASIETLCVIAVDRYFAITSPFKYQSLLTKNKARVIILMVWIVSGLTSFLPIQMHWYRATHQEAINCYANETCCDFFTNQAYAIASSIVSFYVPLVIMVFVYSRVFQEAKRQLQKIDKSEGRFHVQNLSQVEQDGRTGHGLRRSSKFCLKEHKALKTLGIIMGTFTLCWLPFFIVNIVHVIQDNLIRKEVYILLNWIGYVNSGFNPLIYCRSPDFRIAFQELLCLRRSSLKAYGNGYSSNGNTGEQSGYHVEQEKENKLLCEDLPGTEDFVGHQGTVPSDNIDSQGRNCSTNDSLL
Calb FLC = C. albicans growth modulation with fluconazole; C. albicans CaCi-2 (fluconazole-resistant clinical isolate) + fluconazole, Alamar Blue growth, 48 h; growth inhibition, % (test concentration not listed); hit rate 0.57% among 300,000;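 active means most replicates above 75%; inconclusive means exactly half above 75%; inactive means most below 75%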;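 further: all wells also contain fluconazole at 8 µg/ml as a sub-toxic cotreatment; 0% = median of DMSO wells and 100% = median of geldanamycin control wells; wells of about 8 µL received 7.5 nL stock; the first replicate is given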
Beta apoptosis = beta cell apoptosis inhibition | INS-1E cytokine-induced death, ATP luminescence, 48 h; percent of positive-control rescue, neutral wells zero | protection from apoptosis, % (test concentration not listed) | hit rate 0.8% among 300,000 | AID 435005;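 active means all replicates at 75% or more, or half of them and the mean; inconclusive means half reach 75% but not the mean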;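 further: 0% = cytokine-treated negative control wells and 100% = positive control rescue; higher means more ATP so stronger rescue from cytokine killing; wells of about 40 µL received 100 nL stock; the first replicate is given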
ALR inh = blocks human ALR sulfhydryl oxidase activity | P55789 | purified ALR, DTT oxidation, H2O2 HRP-luminol luminescence | inhibition, % (test concentration not listed) | hit rate 3.8% among 290,000 | AID 485317;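 active means mean and each replicate at 75% or more; inconclusive means only one of the two met; inactive means neither met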;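 further: stock transfer was 7.5 nL into about 7.5 µL; 0% = neutral wells and 100% = wells with inactivated enzyme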
Target sequence (P55789 whole entry, looked up): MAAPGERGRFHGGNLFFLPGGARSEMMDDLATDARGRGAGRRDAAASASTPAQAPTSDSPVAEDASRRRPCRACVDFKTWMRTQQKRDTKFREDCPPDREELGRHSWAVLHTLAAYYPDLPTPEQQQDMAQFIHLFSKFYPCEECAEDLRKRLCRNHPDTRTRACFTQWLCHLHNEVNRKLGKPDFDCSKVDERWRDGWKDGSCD
rRNA inh HTS = selective bacterial rRNA inhibition in E. coli; E. coli WT GFP vs humanized-ribosome RFP mutants, fluorescence, 24 h; hits give low values; DMSO median 0, no signal -100; GFP signal change (wild-type ribosome), % (no concentration beside the values); hit rate 1.6% among 350,000;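 active means significant combined selectivity score with lowered wild-type GFP, culture density cut under 30%, mutant RFP and density less affected; inactive means any of these conditions unmet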; further: one replicate is shown; some compounds called inactive have numbers as strong as hits
rRNA inh HTS OD600 = further read-out of rRNA inh HTS, marked with its call; OD600 change, %; measured here: OD600 growth;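 optical density of the mix in the first replicate; 0 = DMSO median and -100 = no signal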
rRNA inh HTS RFP = also measured in rRNA inh HTS; calls as there; RFP signal change, %; measured here: RFP humanized mutant strains;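 first replicate; 0 = DMSO median and -100 = no signal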
Starred values were filed as active, the others as inactive; ? = inconclusive; / = not tested or not shown.

item | compound | T cruzi inh | A1 inh | LANA-H2A inh | Beta2AR agonist | Calb FLC
1 | CC1=CC(=Nc2c(C)n(C)n(-c3ccccc3)c2=O)C=C(C)C1=O | -35 | 0.0 | -3.4 | 5 | -3
2 | CC(/C=N/N1CCN(c2ccccc2)CC1)=C\c1ccccc1 | -26 | -9.3 | -4.7 | 3 | -4
3 | CC(NC(=O)CSc1nnc(-c2cccnc2)n1N)c1ccccc1 (centres undefined) | 1 | -0.4 | -1.7 | -3 | 1
4 | CC(/C=N/NC(=O)c1nnn(-c2nonc2N)c1C(C)C)=C\c1ccco1 | 3 | -0.4 | 2.9 | 7 | 11
5 | CCCn1c(SCC(=O)NCCc2ccc(Cl)cc2Cl)n[nH]c1=O | 0 | 0.4 | -26 | 5 | 0
6 | Cc1ccc(O)c(C(=O)/C=C/c2ccc3c(c2)OCCCO3)c1 | -20 | -1.0 | -5.9 | 6 | ?
7 | CCCCCc1c(O)c2ccccc2[nH]c1=O | -5 | -1.5 | 0.2 | 0 | 3
8 | Cc1ccc(N2NC(C)(c3cccs3)NC2=S)cc1 (centres undefined) | 1 | -0.6 | / | -4 | 105*
9 | CCN(CC(=O)Nc1ccccc1C(F)(F)F)C(=O)CN1C(=O)NC2(CCCC2)C1=O | -5 | -0.2 | 2.0 | 0 | -4
10 | COc1cc(/C=N/Nc2ccc3ccccc3c2)ccc1OC(=O)c1ccco1 | 9 | 0.7 | 1.2 | 5 | 0
11 | CC[C@H]1c2[nH]c3ccccc3c2C[C@@H]2C(=O)N(c3ccc(F)cc3)C(=O)N21 | 12 | -1.0 | -9.3 | -9 | -1
12 | Cc1ccc2nc(NC(=O)CSc3nc(=O)n(CCN(C)C)c4c3CCCC4)sc2c1 | -1 | -1.6 | 4.5 | -2 | 5

item | Beta apoptosis | ALR inh | rRNA inh HTS | rRNA inh HTS OD600 | rRNA inh HTS RFP
1 | / | 99* | 10 | 7 | 0.7
2 | 1 | -3 | 10 | -9 | 3.9
3 | -11 | -9 | 11 | 9 | -1.5
4 | -3 | -18 | -2 | -2 | 4.9
5 | 2 | 0 | / | / | /
6 | -3 | 48 | -13 | -12 | 3.0
7 | 7 | / | / | / | /
8 | -3 | / | / | / | /
9 | -4 | 0 | 1 | 13 | -2.3
10 | / | -182 | / | / | /
11 | 10 | -7 | 4 | -4 | 8.6
12 | -4 | 98* | 11 | 14 | 6.8

The results go on.
item | compound | T cruzi inh | A1 inh | LANA-H2A inh | Beta2AR agonist | Calb FLC
13 | Cc1ccc(C2=NCN(c3ccc(C(=O)O)cc3)C(=S)N2)cc1 | -14 | 0.2 | -7.1 | / | ?
14 | CN(C)S(=O)(=O)c1ccc(Cl)c(NC(=O)CN2C(=O)NC3(CCCC3)C2=O)c1 | -10 | -0.2 | 0.5 | -2 | 0
15 | COc1ccc(CCN2CC34C=CC(O3)C(C(=O)NCc3ccccc3)C4C2=O)cc1OC (centres undefined) | 0 | 0.5 | 1.9 | 0 | 2
16 | Cc1ccc([N+](=O)[O-])cc1S(=O)(=O)Nc1cccc(S(=O)(=O)Nc2ccccc2C(=O)O)c1 | / | 1.1 | -3.3 | 4 | /
17 | CC(C)Oc1ccc(C(=O)NNC(=O)c2ccccc2C(=O)O)cc1 | -22 | 0.1 | 17 | 0 | 19
18 | Cc1ccc(NC(=O)CC(NC(=O)c2ccccc2Cl)c2ccccc2)nc1 (centres undefined) | / | 0.5 | 0.3 | 0 | /
19 | Cc1ccc(OCn2c(=O)sc3ccccc32)cc1 | 14 | -0.6 | 2.1 | -7 | -4
20 | COc1ccc(NC(=O)NC2CCCCCCC2)cc1OC | -7 | 0.3 | -160 | 2 | -3
21 | Cc1ccc(CNC(=O)c2ccc(CS(=O)Cc3cccc(Cl)c3)o2)cc1 (centres undefined) | -10 | -0.5 | 8.0 | -4 | 23
22 | CCOc1cccc2sc(=NC(=O)CCS(=O)(=O)c3ccc(F)cc3)n(C)c12 | 11 | 0.5 | 1.2 | 6 | 4
23 | O=C(NNC(=O)c1c(O)c2ccccc2[nH]c1=O)c1ccccc1 | -2 | -0.9 | 2.8 | 2 | -12
24 | CC(C)N(C(=O)Cn1c(-c2ccccc2Cl)nc2ccccc21)c1ccccc1 | 12 | 0.7 | 2.0 | 3 | -12

item | Beta apoptosis | ALR inh | rRNA inh HTS | rRNA inh HTS OD600 | rRNA inh HTS RFP
13 | / | -3 | / | / | /
14 | -5 | -17 | -1 | 8 | -2.1
15 | -3 | -12 | / | / | /
16 | -3 | 28 | / | / | /
17 | -8 | -5 | 5 | -2 | -1.0
18 | 0 | 4 | 3 | 14 | -0.6
19 | -4 | -4 | -37 | -31 | -8.4
20 | -1 | -31 | -5 | -8 | 4.7
21 | -5 | 92* | -30 | -28 | -6.3
22 | / | -3 | -6 | -10 | 7.9
23 | 0 | 0 | 12 | 14 | 0.0
24 | -2 | -3 | / | / | /

(listing goes on)
item | compound | T cruzi inh | A1 inh | LANA-H2A inh | Beta2AR agonist | Calb FLC
25 | COc1ccc(C(=O)N2CCN(c3ccccc3)CC2)cc1S(=O)(=O)N1CCOCC1 | -4 | -0.5 | -2.6 | 0 | 7
26 | Cc1c(NC(=O)OC(C)C)sc(=S)n1C | -1 | -0.3 | -1.6 | -7 | 2
27 | O=c1[nH]n(-c2ccccc2Cl)c(=O)c2ccccc12 | 1 | -0.5 | -0.2 | 1 | 15
28 | COCCC(=O)N1CCC(Oc2ccc(C(=O)NCCC3=CCCCC3)cc2)CC1 | -44 | 0.1 | 2.3 | -8 | 6
29 | CCSC1=N/C(=C\c2ccc(-c3ccccc3[N+](=O)[O-])o2)C(=O)S1 | 1 | -2.1 | 2.3 | 5 | 7
30 | COc1ccc(OCc2cc(C(=O)N3CCN(CC4CC4)CC3)no2)c(Cl)c1 | 22 | -0.1 | 26* | 7 | -6
31 | C=CCn1c(SC(CCO)C(=O)NCc2ccco2)nc2sc3c(c2c1=O)CCC3 (centres undefined) | 19 | -0.2 | 0.9 | 2 | 2
32 | COc1cc(/C=N/N=C2/NC(=O)C(Cc3ccccc3)S2)ccc1O (centres undefined) | -6 | -0.5 | -5.2 | -3 | 9
33 | Cn1nc(C(C)(C)C)c(NC(=O)c2ccc(F)cc2)c1C(C)(C)C | 2 | -0.5 | 5.7 | 2 | -2
34 | CC(=O)Cn1ncc(N2CCCCC2)c(Cl)c1=O | -18 | 0.6 | -2.1 | 0 | -5
35 | CCC(C)c1ccc(NC(=S)NCc2ccccn2)cc1 (centres undefined) | -20 | -0.8 | -1.5 | 1 | -6
36 | CC1CN(C(=O)c2cc3c(=O)n4ccccc4nc3n2C)CC(C)O1 (centres undefined) | 10 | 1.0 | 1.5 | -12 | ?

item | Beta apoptosis | ALR inh | rRNA inh HTS | rRNA inh HTS OD600 | rRNA inh HTS RFP
25 | / | 11 | 5 | 4 | -2.6
26 | -2 | 98* | 0 | 1 | -4.0
27 | 1 | 0 | 7 | -4 | -9.8
28 | -2 | -1 | -6 | -2 | -0.6
29 | -11 | 20 | / | / | /
30 | -5 | -26 | 4 | -21 | 49
31 | -1 | 33 | / | / | /
32 | -3 | 70 | 9 | 10 | -0.3
33 | -10 | / | 23 | 7 | 1.0
34 | 5 | -2 | -5 | -3 | -3.8
35 | 13 | 9 | -12 | -5 | 7.2
36 | 1 | 2 | 3 | 11 | -1.0

The results go on.
item | compound | T cruzi inh | A1 inh | LANA-H2A inh | Beta2AR agonist | Calb FLC
37 | CC(Oc1ccc(Cl)cc1)C(=O)N(C)CC(=O)Nc1ccc(N2CCOCC2)cc1 (centres undefined) | -5 | 0.4 | -0.7 | -1 | -9
38 | Cc1ccc(C)c(S(=O)(=O)N2CCN(C(=O)c3n[nH]c(=O)c4ccccc34)CC2)c1 | / | 0.8 | 2.5 | 0 | /
39 | N#Cc1c(NCCO)ccc([N+](=O)[O-])c1NCCO | -15 | 0.8 | -0.8 | -1 | 0
40 | COc1ccc(C(=O)CSc2ccc(-c3ccco3)nn2)cc1 | -15 | -1.0 | 5.7 | -8 | 31
41 | CCCc1c(O)nc(SCC(=O)N2CCCCC2)[nH]c1=O | 1 | 0.2 | -3.1 | -9 | 6
42 | Cc1cc(CN2CCCCC2C(=O)Nc2ccc(Oc3cccnc3)cc2)oc1C (centres undefined) | 24 | -0.6 | -0.8 | -8 | -2
43 | Cc1ccc(-c2nc3ccccc3[nH]c2=O)cc1 | -12 | -2.4 | -1.3 | -13 | -5
44 | CC(C)OCCCNc1nc2c([nH]1)c(=O)n(C)c(=O)n2C | -6 | 0.7 | 4.8 | 1 | -6
45 | CC(=O)c1cc2c(C)cc(=O)oc2cc1O | -16 | 0.4 | -2.5 | 9 | -9
46 | CC(CN1CCN(Cc2ccccc2)CC1)OC(=O)c1ccco1 (centres undefined) | -17 | ? | -4.1 | -1 | -16
47 | COc1ccccc1C(C)NCC(=O)NCc1ccc(C)cc1 (centres undefined) | 0 | 1.0 | -0.5 | 4 | 1
48 | O=C(OCc1nc(-c2ccccc2)oc1COC(=O)c1ccco1)c1ccco1 | -1 | -0.1 | -3.3 | -12 | -3

item | Beta apoptosis | ALR inh | rRNA inh HTS | rRNA inh HTS OD600 | rRNA inh HTS RFP
37 | -5 | 93* | 6 | -2 | 2.3
38 | 2 | 0 | -1 | 9 | -1.5
39 | -1 | -6 | 8 | 1 | 1.2
40 | -7 | ? | / | / | /
41 | -6 | 88* | -2 | 6 | -1.9
42 | -8 | -11 | -12 | -11 | 2.8
43 | -7 | / | 3 | 5 | -1.7
44 | 2 | 4 | / | / | /
45 | -10 | -5 | -12 | -13 | -3.7
46 | -6 | / | 9 | 5 | -2.8
47 | 8 | -14 | 8 | 3 | 2.3
48 | -7 | / | -17 | -18 | -7.0

(listing goes on)
item | compound | T cruzi inh | A1 inh | LANA-H2A inh | Beta2AR agonist | Calb FLC
49 | COc1ccccc1N1CCN(C(=O)CN(c2cc(C)cc(C)c2)S(C)(=O)=O)CC1 | -3 | 0.9 | 1.3 | -4 | 1
50 | COc1ccc(-n2c(Cc3cccn3C)nnc2SCC(=O)Nc2ccccc2C)cc1 | -3 | -0.4 | -0.6 | -3 | -2
51 | Oc1c(Cl)cc(Cl)cc1C=Nc1ccc(Br)cc1 | -13 | -0.4 | 3.4 | 11 | -1
52 | CC12CCC(C(=O)NCCN3CCCCC3)(CC1=O)C2(C)C (centres undefined) | -16 | 0.3 | -8.0 | 0 | -5

item | Beta apoptosis | ALR inh | rRNA inh HTS | rRNA inh HTS OD600 | rRNA inh HTS RFP
49 | -1 | 12 | 2 | -4 | 7.7
50 | -3 | 7 | -2 | 2 | 0.7
51 | -8 | -30 | -6 | 0 | 0.7
52 | -1 | -2 | 15 | 12 | -1.9

Three entries from above, arranged by the value under rRNA inh HTS RFP, highest first.
item | SMILES | rRNA inh HTS RFP
49 | COc1ccccc1N1CCN(C(=O)CN(c2cc(C)cc(C)c2)S(C)(=O)=O)CC1 | 7.7
51 | Oc1c(Cl)cc(Cl)cc1C=Nc1ccc(Br)cc1 | 0.7
52 | CC12CCC(C(=O)NCCN3CCCCC3)(CC1=O)C2(C)C (centres undefined) | -1.9

Some of the compounds tested (hit frequency here may not be typical).
